A1 apoptosis 2 = compounds inhibiting A1, read as caspase activation; MEF A1-2A-BIM cells, caspase-Glo luminescence, 3 h; percent of clofoctol response, DMSO zero; caspase activation, % (test concentration not listed); 24,000 tested, under 10 active; AID 2465; in the data active = caspase activation above about 5.9%;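 also: wells of about 30 µL received 50 nL stock; the first replicate is given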
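system = A1-2A-BIM-expressing MEF cells | quantity = 2500 MEF cells/well | dosing = 50 nL compound per well, pinned | schedule = overnight cell settling, then 3 h compound exposure, 37 °C | signal = luminescence from DEVD-luciferin Caspase-Glo reagent, 1:1 in 50 mM HEPES, 1 h RT | read-out = Caspase-3/7 activation, seen as rise in luminescence signal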
* marks the source's active call; other numbers are inactive results. A portion of the library; rates above refer to the full screens.

SMILES	A1 apoptosis 2
C[C@@H]1CN([C@@H](C)CO)C(=O)c2cc(NS(=O)(=O)c3ccc(Cl)cc3)ccc2O[C@@H](C)CCCCO[C@@H]1CN(C)C(=O)Nc1ccccc1	-1.0
C[C@H](CO)N1C[C@H](C)[C@@H](CN(C)S(=O)(=O)c2cn(C)cn2)Oc2c(NC(=O)NC3CCCCC3)cccc2C1=O	0.4
C[C@H](CO)N1C[C@H](C)[C@H](CN(C)C(=O)Nc2ccc3c(c2)OCO3)OCCCC[C@H](C)Oc2ccc(NC(=O)CCC(F)(F)F)cc2C1=O	0.6
O=C(CCCCC(=O)N/N=C/c1ccc(O)c(O)c1O)NO	-1.8
CNC[C@H]1Oc2ccc(N(C)C)cc2CC(=O)N([C@@H](C)CO)C[C@H]1C	0.9
C[C@@H]1CN([C@H](C)CO)C(=O)CCCn2nncc2CO[C@H]1CN(C)Cc1ccc(O)cc1	0.2
C[C@@H]1CCCCO[C@@H](CN(C)Cc2ccccc2)[C@@H](C)CN([C@H](C)CO)C(=O)c2cc(NC(=O)Cc3ccccc3)ccc2O1	-0.4
Cc1noc(C)c1S(=O)(=O)Nc1ccc2c(c1)C(=O)N([C@@H](C)CO)C[C@H](C)[C@H](CN(C)C(=O)Nc1ccc(F)cc1)O2	0.6
Cc1noc(C)c1S(=O)(=O)Nc1cccc2c1O[C@@H](CN(C)S(=O)(=O)c1ccc(Cl)cc1)[C@@H](C)CN([C@H](C)CO)C2=O	-0.8
C[C@@H]1CN([C@@H](C)CO)C(=O)c2cc(NC(=O)C3CCCCC3)ccc2O[C@@H](C)CCCCO[C@H]1CN(C)Cc1ccc2c(c1)OCO2	-0.1
Cc1noc(C)c1NC(=O)Nc1ccc2c(c1)C(=O)N([C@H](C)CO)C[C@H](C)[C@H](CN(C)Cc1ccccc1)OCCCC[C@@H](C)O2	-1.4
Cc1ccc(S(=O)(=O)Nc2ccc3c(c2)C(=O)N([C@H](C)CO)C[C@@H](C)[C@H](CN(C)C(=O)CCCN(C)C)OCCCC[C@@H](C)O3)cc1	0.2
CCCN(C)C[C@@H]1OCCCC[C@@H](C)Oc2ccc(NS(=O)(=O)c3ccc(OC)cc3)cc2C(=O)N([C@H](C)CO)C[C@@H]1C	1.2
C[C@H](CO)N1C[C@H](C)[C@H](CN(C)S(=O)(=O)c2ccc(Cl)cc2)Oc2c(NC(=O)c3ccc(-c4nccs4)cc3)cccc2C1=O	-0.5
COc1ccc(S(=O)(=O)Nc2ccc3c(c2)CC(=O)N([C@@H](C)CO)C[C@H](C)[C@H](CN(C)CC2CC2)O3)cc1	1.3

Retrieved by compound from the list above, seven records:
SMILES	A1 apoptosis 2
Cc1ccc(S(=O)(=O)Nc2ccc3c(c2)C(=O)N([C@H](C)CO)C[C@@H](C)[C@H](CN(C)C(=O)CCCN(C)C)OCCCC[C@@H](C)O3)cc1	0.2
O=C(CCCCC(=O)N/N=C/c1ccc(O)c(O)c1O)NO	-1.8
C[C@@H]1CN([C@@H](C)CO)C(=O)c2cc(NC(=O)C3CCCCC3)ccc2O[C@@H](C)CCCCO[C@H]1CN(C)Cc1ccc2c(c1)OCO2	-0.1
C[C@H](CO)N1C[C@H](C)[C@H](CN(C)S(=O)(=O)c2ccc(Cl)cc2)Oc2c(NC(=O)c3ccc(-c4nccs4)cc3)cccc2C1=O	-0.5
C[C@@H]1CCCCO[C@@H](CN(C)Cc2ccccc2)[C@@H](C)CN([C@H](C)CO)C(=O)c2cc(NC(=O)Cc3ccccc3)ccc2O1	-0.4
CNC[C@H]1Oc2ccc(N(C)C)cc2CC(=O)N([C@@H](C)CO)C[C@H]1C	0.9
C[C@H](CO)N1C[C@H](C)[C@@H](CN(C)S(=O)(=O)c2cn(C)cn2)Oc2c(NC(=O)NC3CCCCC3)cccc2C1=O	0.4

Carrying on.
SMILES	A1 apoptosis 2
C[C@@H]1CCCCO[C@H](CN(C)S(=O)(=O)c2cccs2)[C@H](C)CN([C@@H](C)CO)C(=O)c2cc(NC(=O)c3ccncc3)ccc2O1	-0.8
C[C@@H]1CN([C@H](C)CO)C(=O)c2cccc(NC(=O)Nc3ccc(F)cc3)c2O[C@H]1CN(C)C(=O)NC1CCCCC1	-1.1
C[C@H]1CN([C@@H](C)CO)C(=O)c2cccc(NC(=O)Nc3cccc4ccccc34)c2O[C@@H]1CN(C)C(=O)NC1CCCCC1	-0.5
C[C@H](CO)N1C[C@H](C)[C@H](CN(C)S(=O)(=O)c2cn(C)cn2)OCc2cn(nn2)CCCC1=O	0.2
Cc1ccc(S(=O)(=O)N(C)C[C@@H]2OCCCC[C@@H](C)Oc3ccc(NS(=O)(=O)c4ccc(Cl)cc4)cc3C(=O)N([C@H](C)CO)C[C@H]2C)cc1	-0.8
C=CCOC(=O)[C@H]1[C@@H]2C(=O)O[C@@H](c3ccccc3)[C@@H](c3ccccc3)N2[C@@H](c2ccc(OCCOC(=O)[C@H]3C[C@H]4C(=O)N[C@@H](CCCCNC(C)=O)C(=O)N4[C@H]3c3ccc(O)cc3)cc2)[C@]12C(=O)Nc1ccccc12	-0.5
Cc1cc(C(=O)Nc2cccc3c2O[C@@H](CN(C)Cc2ccc(Cl)c(Cl)c2)[C@@H](C)CN([C@@H](C)CO)C3=O)n(C)n1	0.6
C[C@@H]1CN([C@H](C)CO)C(=O)Cc2cc(NS(=O)(=O)c3cccs3)ccc2O[C@@H]1CN(C)Cc1ccc(C(=O)Nc2ccccc2N)cc1	0.6
C[C@@H]1CCCCO[C@@H](CN(C)Cc2ccncc2)[C@H](C)CN([C@@H](C)CO)C(=O)c2cc(NS(=O)(=O)c3cn(C)cn3)ccc2O1	-0.2
Cc1ccc(S(=O)(=O)N(C)C[C@@H]2Oc3ccc(NC(=O)NC(C)C)cc3C(=O)N([C@H](C)CO)C[C@H]2C)cc1	0.4
COc1ccc(NC(=O)N(C)C[C@H]2Oc3c(NS(=O)(=O)c4ccccc4)cccc3C(=O)N([C@@H](C)CO)C[C@@H]2C)cc1	0.5
COC(=O)CCCCCCC(=O)N/N=C/c1ccc(OC)c(Br)c1	0.0
C[C@@H]1CN([C@H](C)CO)C(=O)Cc2cc(NC(=O)CCN3CCOCC3)ccc2O[C@@H]1CN(C)S(=O)(=O)c1ccccc1	-0.6
C[C@H]1CCCCO[C@H](CN(C)C(=O)c2ccccc2)[C@@H](C)CN([C@@H](C)CO)C(=O)c2cc(NC(=O)CCCN(C)C)ccc2O1	1.7
C[C@H]1CN([C@@H](C)CO)C(=O)c2cc(NC(=O)Cc3ccccc3)ccc2O[C@@H]1CN(C)C(=O)Nc1ccc2c(c1)OCO2	0.5
CNC[C@@H]1Oc2ccc(NS(=O)(=O)c3ccccc3)cc2C(=O)N([C@H](C)CO)C[C@@H]1C	-0.2
C[C@@H]1CN([C@H](C)CO)C(=O)c2cc(NS(=O)(=O)c3cccs3)ccc2O[C@@H](C)CCCCO[C@@H]1CN(C)C(=O)NC1CCCCC1	-0.6
C[C@@H]1CN([C@H](C)CO)C(=O)c2cc(NC(=O)Cc3ccccc3)ccc2O[C@@H](C)CCCCO[C@H]1CN(C)C(=O)Nc1ccc2c(c1)OCO2	1.1
Cc1noc(C)c1NC(=O)N(C)C[C@H]1OCCCC[C@@H](C)Oc2ccc(NS(=O)(=O)c3cccs3)cc2C(=O)N([C@@H](C)CO)C[C@@H]1C	-0.3
C[C@@H]1CN([C@@H](C)CO)C(=O)Cc2cc(NS(=O)(=O)c3ccccc3)ccc2O[C@H]1CN(C)C(=O)Nc1ccccc1	-0.3
Cc1noc(C)c1S(=O)(=O)Nc1ccc2c(c1)C(=O)N([C@@H](C)CO)C[C@H](C)[C@@H](CN(C)S(=O)(=O)c1ccc(F)cc1)O2	-0.8
C[C@H]1CN([C@@H](C)CO)C(=O)c2cc(NS(=O)(=O)c3ccc(Cl)cc3)ccc2O[C@H]1CN(C)C(=O)NC1CCCCC1	0.7
COc1ccc(S(=O)(=O)N(C)C[C@@H]2Oc3c(NC(=O)Nc4ccc5c(c4)OCO5)cccc3C(=O)N([C@@H](C)CO)C[C@@H]2C)cc1	-1.0
C[C@H](CO)N1C[C@H](C)[C@@H](CN(C)C(=O)Nc2ccc(C(F)(F)F)cc2)Oc2c(NC(=O)c3nc4ccccc4s3)cccc2C1=O	-1.5
C[C@H]1CN([C@@H](C)CO)C(=O)c2cccc(NC(=O)NC3CCCCC3)c2O[C@@H]1CN(C)C(=O)Nc1ccc(C(F)(F)F)cc1	0.3
CC(C)NC(=O)Nc1cccc2c1O[C@@H](CN(C)Cc1ccncc1)[C@@H](C)CN([C@H](C)CO)C2=O	2.5
C[C@H](CO)N1C[C@H](C)[C@@H](CN(C)C(=O)Nc2ccccc2)Oc2ccc(NC(=O)CCN3CCOCC3)cc2CC1=O	-0.5
CC(C)NC(=O)N(C)C[C@@H]1Oc2ccc(NC(=O)CCCCCC(=O)Nc3ccccc3N)cc2C(=O)N([C@@H](C)CO)C[C@H]1C	1.4
C[C@H]1CN([C@@H](C)CO)C(=O)Cc2cc(NC(=O)Cc3cn(C)c4ccccc34)ccc2O[C@@H]1CN(C)Cc1ccc(Cl)c(Cl)c1	0.0
CNC[C@H]1Oc2ccc(NS(=O)(=O)c3ccccc3)cc2CC(=O)N([C@H](C)CO)C[C@H]1C	0.9
C[C@H]1CN([C@@H](C)CO)C(=O)c2cc(NS(=O)(=O)c3cn(C)cn3)ccc2O[C@@H]1CN(C)Cc1ccc(C(=O)O)cc1	0.2
Cc1ccc(S(=O)(=O)Nc2ccc3c(c2)C(=O)N([C@H](C)CO)C[C@H](C)[C@H](CN(C)C(=O)Nc2ccc4c(c2)OCO4)O3)cc1	0.4
C[C@@H]1CN([C@@H](C)CO)C(=O)Cc2cc(NC(=O)Cc3cn(C)c4ccccc34)ccc2O[C@H]1CN(C)C	0.5
C[C@H](CO)N1C[C@H](C)[C@H](CN(C)S(C)(=O)=O)Oc2ncccc2C1=O	-0.3
C[C@H](CO)N1C[C@H](C)[C@H](CN(C)S(=O)(=O)c2ccccc2)Oc2ccc(NC(=O)CCCCCC(=O)Nc3ccccc3N)cc2C1=O	1.3
C[C@H]1CN([C@@H](C)CO)C(=O)c2cccc(NC(=O)c3nc4ccccc4s3)c2O[C@@H]1CN(C)Cc1ccc(-c2ccccc2)cc1	-1.3
Cc1noc(C)c1NC(=O)Nc1ccc2c(c1)CC(=O)N([C@H](C)CO)C[C@H](C)[C@@H](CN(C)Cc1ccncc1)O2	0.9
COc1ccc(S(=O)(=O)Nc2ccc3c(c2)CC(=O)N([C@@H](C)CO)C[C@H](C)[C@H](CN(C)Cc2ccc(-c4ccccc4)cc2)O3)cc1	-0.6
Cc1noc(C)c1NC(=O)Nc1ccc2c(c1)C(=O)N([C@H](C)CO)C[C@H](C)[C@H](CN(C)C(=O)Nc1c(C)noc1C)OCCCC[C@H](C)O2	0.1
COc1ccc(S(=O)(=O)N(C)C[C@H]2OCCCC[C@H](C)Oc3ccc(NC(=O)c4ccncc4)cc3C(=O)N([C@H](C)CO)C[C@@H]2C)cc1	0.0
O=C(NN=C1CCCCCCC1)c1ccccn1	2.0
Cc1noc(C)c1S(=O)(=O)N(C)C[C@H]1Oc2ccc(NC(=O)Nc3ccccc3)cc2CC(=O)N([C@@H](C)CO)C[C@H]1C	1.0
C[C@H](CO)N1C[C@H](C)[C@H](CN(C)S(=O)(=O)c2ccc(Cl)cc2)Oc2ccc(NC(=O)c3ccncc3)cc2CC1=O	0.1
C[C@H](CO)N1C[C@H](C)[C@H](CN(C)C(=O)Nc2cccc3ccccc23)Oc2c(NC(=O)Nc3ccc4c(c3)OCO4)cccc2C1=O	-0.1
C[C@H](CO)N1C[C@H](C)[C@H](CN(C)Cc2ccncc2)Oc2c(NC(=O)C3CCOCC3)cccc2C1=O	1.4
C[C@H](CO)N1C[C@H](C)[C@H](CN(C)Cc2ccc(Cl)c(Cl)c2)OCc2cn(nn2)CCCC1=O	0.6
C[C@@H]1CN([C@H](C)CO)C(=O)c2cc(NC(=O)Nc3ccc(F)cc3)ccc2O[C@@H](C)CCCCO[C@@H]1CN(C)S(=O)(=O)c1ccccc1	-1.0
C[C@H](CO)N1C[C@H](C)[C@H](CN(C)C)Oc2c(NC(=O)NC3CCCCC3)cccc2C1=O	-0.4
C[C@@H]1CN([C@H](C)CO)C(=O)c2cccc(NS(=O)(=O)c3cn(C)cn3)c2O[C@@H]1CN(C)C(=O)NC1CCCCC1	-1.7
COc1cccc(CN(C)C[C@H]2OCc3cn(nn3)CCCC(=O)N([C@H](C)CO)C[C@H]2C)c1	0.6
COc1ccc(NC(=O)Nc2ccc3c(c2)CC(=O)N([C@H](C)CO)C[C@H](C)[C@H](CN(C)S(=O)(=O)c2ccc(C)cc2)O3)cc1	-0.4
C[C@H]1CN([C@@H](C)CO)C(=O)Cc2cc(NC(=O)CCCCCC(=O)Nc3ccccc3N)ccc2O[C@H]1CN(C)S(=O)(=O)c1cccs1	-0.4
C[C@@H]1CCCCO[C@H](CN(C)S(=O)(=O)c2ccccc2)[C@H](C)CN([C@@H](C)CO)C(=O)c2cc(NS(=O)(=O)c3ccc(F)cc3)ccc2O1	0.6
COc1cccc(CN(C)C[C@@H]2OCc3cnnn3CCCC(=O)N([C@@H](C)CO)C[C@H]2C)c1	0.3
C[C@H]1CN([C@@H](C)CO)C(=O)Cc2cc(NS(C)(=O)=O)ccc2O[C@@H]1CN(C)S(=O)(=O)c1cccs1	-0.7
C[C@@H]1CCCCO[C@H](CN(C)C(=O)Nc2ccc(C(F)(F)F)cc2)[C@H](C)CN([C@H](C)CO)C(=O)c2cc(N(C)C)ccc2O1	-0.1
